# Six1-Eya2 blk: inhibitors of human Six1/Eya2 interaction. 0.56% of 360,000 active. AID 651725. AlphaScreen GST-Six1/His-Eya2 binding, biochemical; stronger effect = lower value; control for the full effect not named in the record. Q15475+O00167. activity change, % (test concentration not listed); in the data active = activity change below about -65%; inconclusive = about -30% to -65%; inactive = above about -30%; note: % is set by controls: 0 for no effect and ±100 for the full control effect; compound concentration not given in the record
#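 AlphaScreen with GST-Six1 and His-Eya2 (5X mix: 250 nM and 500 nM), glutathione donor and nickel acceptor beads; buffer 50 mM Tris pH 8.0, 300 mM NaCl, 1 mM TCEP; 1 h at 37 C in the dark.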
# TRPML1 agonist: activates the human TRPML1 channel; Q9GZU1; TRPML1-expressing cells, Ca2+ dye fluorescence, FDSS; host cell line not named in the record; reference of the full effect not given here; activation, % (concentration not given with the values); 0.12% of 410,000 active; in the data active = activation above about 50%; inconclusive = about 30% to 50%; inactive = below about 30%; note: 0% is about no effect; the text of the record puts the active cut at 80%
# Target sequence (Q9GZU1 whole entry, looked up): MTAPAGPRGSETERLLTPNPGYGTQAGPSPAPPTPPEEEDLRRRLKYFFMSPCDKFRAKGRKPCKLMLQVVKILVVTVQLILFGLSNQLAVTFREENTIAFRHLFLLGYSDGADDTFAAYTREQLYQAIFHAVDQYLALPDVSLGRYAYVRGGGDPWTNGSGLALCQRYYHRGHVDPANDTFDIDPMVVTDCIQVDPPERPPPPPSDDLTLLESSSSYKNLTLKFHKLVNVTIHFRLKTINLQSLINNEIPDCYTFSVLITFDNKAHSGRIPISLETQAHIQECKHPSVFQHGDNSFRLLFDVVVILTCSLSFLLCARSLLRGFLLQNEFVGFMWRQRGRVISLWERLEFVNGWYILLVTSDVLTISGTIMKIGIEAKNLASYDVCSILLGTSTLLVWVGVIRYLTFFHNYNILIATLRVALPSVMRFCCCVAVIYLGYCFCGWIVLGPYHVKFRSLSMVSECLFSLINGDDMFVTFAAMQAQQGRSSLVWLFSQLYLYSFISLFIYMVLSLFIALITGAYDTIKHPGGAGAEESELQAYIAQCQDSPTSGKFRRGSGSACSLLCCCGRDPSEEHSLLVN
#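 Cells: TRPML1-DL, 1X Tet inducer, ~16 h at 37 degrees C/5% CO2. Dye: ABD Ca8 no-wash + quencher, 45-90 min RT. Read: 10 s baseline, compound add, 110 s agonist phase; 54-4 EC80 (4uM final), 110 s antagonist phase.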
# TRPV1 PAM: human TRPV1 potentiation; Q8NER1; TRPV1-expressing cells, Fluo-8 calcium influx, capsaicin EC20 potentiation; host cell line not named in the record; control for the full effect not named in the record; potentiation, % at 8.33 µM; 0.02% of 320,000 active; AID 540277; active means potentiation above 80%; inconclusive means 30% to 80%; inactive means below 30%; note: 0% is about no effect
#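 Cells expressing TRPV1 were dye-loaded with Fluo-8 and read kinetically: 10 s baseline, 3 min after compound (agonist portion), then 2 min after EC20 capsaicin (allosteric enhancer portion). Calcium-bound dye fluorescence at 480/520 nm.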
# D2 potentiator: potentiates the human D2 dopamine receptor allosterically; DiscoveRx D2 beta-arrestin cells, luminescence, 90 min; 100% = 57 uM dopamine signal; P14416; 0.23% of 360,000 active; potentiation, % (concentration not given with the values); AID 624464; active = potentiation of 50% or more; inconclusive = 30% to 50%; inactive = 30% or less;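 note: compound concentration not given in the record; tested on top of an EC20 dose of dopamine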
# Target sequence (P14416 whole entry, looked up): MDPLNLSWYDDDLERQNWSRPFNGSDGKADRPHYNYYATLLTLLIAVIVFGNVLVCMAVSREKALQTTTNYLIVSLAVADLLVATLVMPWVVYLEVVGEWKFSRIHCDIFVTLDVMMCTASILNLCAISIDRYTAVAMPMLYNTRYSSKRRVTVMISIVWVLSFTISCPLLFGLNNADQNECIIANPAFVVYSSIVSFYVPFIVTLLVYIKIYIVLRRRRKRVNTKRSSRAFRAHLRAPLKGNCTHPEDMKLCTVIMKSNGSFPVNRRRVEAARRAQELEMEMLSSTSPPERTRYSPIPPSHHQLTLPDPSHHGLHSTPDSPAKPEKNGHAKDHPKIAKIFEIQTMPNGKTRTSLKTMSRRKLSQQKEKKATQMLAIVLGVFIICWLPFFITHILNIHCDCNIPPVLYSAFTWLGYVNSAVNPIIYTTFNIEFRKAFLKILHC
#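 PathHunter beta-arrestin assay in DiscoveRx D2 cells. Compounds were added with an EC20 of dopamine (50 nM final) for 90 min at 37 deg C. Luminescence was read 1 h after detection reagent, with 57 uM dopamine as the EC100 control.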
# TRPML1 blocker: inhibitors of human TRPML1 channel | 0.02% of 390,000 active | TRPML1-inducible cells, Ca2+ dye fluorescence, FDSS; stronger effect = lower value; inhibition of EC80 agonist-evoked calcium signal | Q9GZU1 | activity change, negative = inhibition, % (no concentration beside the values); in the data active means activity change below about -50%; inconclusive means about -30% to -50%; inactive means above about -30%;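 note: stimulus is agonist 54-4 at its EC80 concentration; % is set by controls: 0 for no effect and ±100 for the full control effect; compound concentration not given in the record; the text of the record puts the active cut at -80%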
#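 Calcium fluorescence in TRPML1-DL cells induced overnight with Tet: a 110 s read after compound pin addition, then a 110 s antagonist read after challenge with 54-4 at 4 uM final (EC80).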
# CtBP-E1A inh: blocks the CtBP interaction with E1A; activity change, % (concentration not given with the values); 0.49% of 340,000 active; AlphaScreen GST-E1A/His-CtBP binding, 1536-well; stronger effect = lower value; control for the full effect not named in the record; AID 651724; in the data active means activity change below about -65%; inconclusive means about -30% to -65%; inactive means above about -30%; note: % is set by controls: 0 for no effect and ±100 for the full control effect
#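 In 5 uL wells, 23 nL compound meets equimolar GST-E1A and His-CtBP (5X stock 125 nM each) for 2 h, 37 °C. Beads (5X, 50 ug/mL) then 1 h, 37 °C, dark.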
# Active calls of the source: *; ? = inconclusive; . = no result given; & = joins results of further samples.
item	molecule	Six1-Eya2 blk	TRPML1 agonist	TRPV1 PAM	D2 potentiator	TRPML1 blocker	CtBP-E1A inh
1	COc1cccc(Cn2c(=O)c3[nH]cnc3n(-c3ccccc3C)c2=O)c1	1	-1.1	9	-10	9	.
2	COc1ccc(NC(=O)COc2cccc3c2OC(C)(C)C3)c(OC)c1	-4	0.4	-8	-6	16	6
3	COc1cc2[nH]c(=S)n(C3CCN(Cc4ccccc4)CC3)c(=O)c2cc1OC	-7	0.0	2	-10	1	3
4	O=C(/C=C\c1ccccc1OC(=O)c1ccccc1F)c1cc2ccccc2o1	-12	-0.3	?	-5	9	-21
5	Cc1ccc(OCC(=O)OC(C)C(=O)NC2CCCCC2C)cc1C (configuration not stated)	7	0.0	-6	-9	9	-9
6	Nc1nc2ccccc2nc1N1CCCC1	-13	-0.2	0	-16	8	-3
7	Nc1ccc2c(c1)C(=O)N(CCCC(=O)O)C2=O	5	0.2	0	3	6	7
8	CC(Sc1nnc(-c2cccs2)n1-c1ccccc1)C(=O)NCc1ccc2c(c1)OCO2 (configuration not stated)	3	1.3	3	-26	6	-7
9	O=C(C1CCCN1S(=O)(=O)c1cccc2cccnc12)N1CCn2c1nc1ccccc12 (configuration not stated)	0	-0.3	4	-6	-7	4
10	COc1ccc(NC(=S)N(Cc2cccnc2)Cc2ccco2)cc1	-1	1.8	1	-3	5	0
11	CCCN(C1CCS(=O)(=O)C1)S(=O)(=O)c1cc(OC)ccc1OC (configuration not stated)	2	0.2	0	-3	6	-4
12	CCOC(=O)c1c(NC(=O)Cn2cnc([N+](=O)[O-])n2)sc2c1CCC(C)C2 (configuration not stated)	-2	3.8	-2	14	9	-9
13	O=C(CCN1C(=O)c2ccccc2C1=O)N1CCN(c2ccccc2)CC1	-1	2.8	-5	4	-10	3
14	CN(C)CCCN(C(=O)c1ccc(S(=O)(=O)N2CCc3ccccc3C2)cc1)c1nc2c(F)cc(F)cc2s1	-16	0.7	-1	-1	-13	-30
15	O=C(CN(c1ccccc1)S(=O)(=O)c1ccccc1[N+](=O)[O-])Nc1cccnc1	1	2.5	-17	2	-6	4
16	NC(=O)CN1CCOCCOCCOCCOCCOCC1	9	-0.4	-11	0	-11	-7
17	CCOc1ccc2nc(Nc3nc4ccc(NC(C)=O)cc4s3)sc2c1	-5	1.3	10	-28	-18	0
18	CCCCNC(=O)c1ccc(C)c(NC(=O)C2=C(C)OCCS2)c1	-1	1.3	-1	-7	6	0
19	Cc1ccc(/C=N/Nc2nc(Cl)c(Cl)cc2Cl)s1	-3	0.0	-1	-11	6	-3
20	CCOc1ccc(CCNC(=O)CN2C(=O)NC3(CCCc4ccccc43)C2=O)cc1OCC (configuration not stated)	0	0.8	20	9	4	3
21	CCOc1ccc(NC(=O)/C=C/c2ccccc2)c([N+](=O)[O-])c1	-5	0.4	2	7	6	-17
22	CCOc1ccc(NC(=O)C2CCCN(c3nn4c(=O)cc(C)nc4s3)C2)cc1 (configuration not stated)	2	-0.2	?	2	-3	.
23	O=[N+]([O-])c1cccc(NC(=S)N2CCc3ccccc3C2)c1	-12	1.3	11	-11	-18	1
24	COc1ccc(/C=C/c2ccc3cccc(O)c3n2)c(OC)c1OC	-5	1.8	-8	-9	-22	.
25	CCc1nc2oc(C(=O)c3ccccc3)c(N)c2c2c1COC(C)(C)C2	0	-0.7	23	-12	9	2

# Three entries already listed, ordered by heavy-atom count, largest number first.
item	molecule	Six1-Eya2 blk	TRPML1 agonist	TRPV1 PAM	D2 potentiator	TRPML1 blocker	CtBP-E1A inh
20	CCOc1ccc(CCNC(=O)CN2C(=O)NC3(CCCc4ccccc43)C2=O)cc1OCC (configuration not stated)	0	0.8	20	9	4	3
24	COc1ccc(/C=C/c2ccc3cccc(O)c3n2)c(OC)c1OC	-5	1.8	-8	-9	-22	.
18	CCCCNC(=O)c1ccc(C)c(NC(=O)C2=C(C)OCCS2)c1	-1	1.3	-1	-7	6	0

# The list continues:
item	molecule	Six1-Eya2 blk	TRPML1 agonist	TRPV1 PAM	D2 potentiator	TRPML1 blocker	CtBP-E1A inh
26	CCOc1cc(CNCCCN2CCOCC2)ccc1OCC(=O)NC(C)(C)C	10	-0.2	11	-7	-16	5
27	CC(C)c1ccc(NC(=O)[C@@H]2CCC(=O)N2C2OC(=O)c3ccccc32)cc1 (some centres not stated)	-1	.	-9	-9	.	2
28	O=C(Nc1ccc(C(=O)N2CCOCC2)cc1)c1cc(-c2cccnc2)nc2ccc(Br)cc12	-17	-0.2	19	-7	0	14
29	Cc1c(NS(=O)(=O)c2ccc(N3CCN(C)CC3)c([N+](=O)[O-])c2)c(=O)n(-c2ccccc2)n1C	2	0.0	-9	-3	5	2
30	O=S(=O)(c1ccc(S(=O)(=O)N2CCN(C/C=C/c3ccccc3)CC2)cc1)N1CCCC1	0	1.9	26	21	-8	3
31	CC(C)C[C@H]1CN=C(Nc2ccccc2)N1CC1CCCCC1	-3	0.3	18	-17	29	1
32	CC(C)CNC(=O)C(=O)Nc1cc2c3c(c1)CCC(=O)N3CCC2	10	-0.5	4	-3	-4	.
33	Cc1ccc(-n2c(-c3ccncc3)n[nH]c2=S)cc1C	1	-0.1	4	-20	-4	-11
34	O=C(OC(c1ccccc1)c1nccc2ccccc12)c1cc([N+](=O)[O-])cc([N+](=O)[O-])c1 (configuration not stated)	?	0.3	-7	81*	0	?
35	CCOC(=O)C(C)c1ccc2cc(OC)ccc2c1 (configuration not stated)	31	-0.4	-18	-16	-3	21
36	Cc1ccccc1Nc1nc(N)nc(COC(=O)c2ccco2)n1	0	-0.3	.	-27	-8	15
37	COC(=O)c1c(C)c(OC(=O)c2c(C)cc(O)c(C=O)c2O)cc(C)c1O	25	.	.	-29	.	0
38	COc1ccc(NC(=O)CCCc2nnc3n(C)c(=O)c4sccc4n23)cc1	-2	3.7	1	-2	1	.
39	Cc1cc(C(=O)N/N=C/c2cc(Cl)cc([N+](=O)[O-])c2O)n[nH]1	?	0.4	2	-3	16	-81*
40	O=C(COC(=O)c1ccc2ccccc2n1)Nc1ccccc1Br	3	0.2	.	-6	-8	3
41	CCNC(=S)Nc1ccc2c(c1)c(=O)n(C)n2-c1ccc(C(C)(C)C)cc1	4	-0.8	.	-4	.	-20
42	COc1ccc(-c2ccc(CCC(=O)O)n2-c2cc(OC)ccc2OC)cc1	-6	-0.3	.	-12	34	-5
43	O=C(O)CC1c2ccccc2CCN1S(=O)(=O)c1ccccc1 (configuration not stated)	-1	-0.1	.	-4	0	2
44	CCOc1ccc(S(=O)(=O)N2CCN(C(=O)c3cc4c(s3)CCCC4)CC2)cc1	0	7.0	15	-20	-11	-7
45	O=C(CSC1=N/C(=C/c2ccco2)C(=O)N1c1ccc(OC(F)F)cc1)NC1CCS(=O)(=O)C1 (configuration not stated)	2	-0.2	-3	-7	20	0
46	CCCCN(C1CCS(=O)(=O)C1)S(=O)(=O)c1ccc(C(C)C)cc1 (configuration not stated)	-5	0.0	2	-29	-1	5
47	COc1ccc(C2(C(=O)Nc3ccc(C(=O)N4CCOCC4)cc3)CCOCC2)cc1	7	-0.2	3	6	3	9
48	CCC(Oc1ccccc1OC)C(=O)Nc1ccc2c(c1)n(C)c(=O)n2C (configuration not stated)	-6	1.0	6	-7	13	-24
49	Cc1ccccc1-c1nc(S(=O)(=O)c2ccccc2)c(NCCN2CCOCC2)o1	-19	-0.2	.	-23	56	-5
50	c1ccc(-c2csc(NC3=NCCCCC3)n2)cc1	8	-0.3	-8	-3	-21	2
51	O=C(/C=C/c1ccc(S(=O)(=O)N2CCOCC2)cc1)NC(CO)C(O)c1ccc([N+](=O)[O-])cc1 (configuration not stated)	-6	1.3	.	-5	43	-5
52	CC(=O)N1CCN(c2ccc(S(=O)(=O)N3CCCCC3)cn2)CC1	7	0.3	-2	8	8	-8
53	Cc1cc(=O)oc2cc(OC(=O)CCCCCN3C(=O)c4ccccc4C3=O)ccc12	-7	1.7	-21	-7	-3	0
54	CN1CCN(CCCNC(=O)Cn2nc(-c3ccccc3)ccc2=O)CC1	1	0.8	0	4	5	3
55	Cc1ccc(C(=O)N/C(=C/c2cn(-c3ccccc3)nc2-c2ccccc2)C(=O)O)cc1	1	-0.2	-2	-11	1	-8
56	O=C(CCN1C(=O)c2ccccc2C1=O)N1CCN(Cc2ccccc2)CC1	-2	0.1	-37	-17	-1	-8
57	O=C(NNC(=O)c1ccccc1O)c1ccc(NS(=O)(=O)c2ccc(F)cc2)cc1	-6	1.9	-8	0	20	?
58	Cc1onc(-c2c(F)cccc2Cl)c1C(=O)Nc1nnc(C2CC2)s1	-2	0.3	7	-9	11	-1
59	O=c1[nH]c2ccc(S(=O)(=O)Nc3ccc(Cl)cc3)cc2[nH]1	1	0.4	29	3	-2	2
60	O=C(Nc1ccc(S(=O)(=O)N2CCOCC2)cc1)c1ccc2ncsc2c1	0	-0.6	-16	-10	-5	1
61	COc1ccc(C(C)=O)cc1COC(=O)c1ccc2c(c1)OCCO2	-1	5.1	7	4	-3	1
62	C=CCN1C(=O)C(CC(=O)NCC)SC1=Nc1ccccc1CC (configuration not stated)	14	0.6	-9	-7	4	-9
63	Cc1c(O)ccc2c(CN3CCN(C/C=C/c4ccccc4)CC3)cc(=O)oc12	-14	1.2	-2	-4	21	-25
64	Cc1cc(C)cc(NC(=O)Cn2nnc(C(=O)NCc3cccs3)c2N)c1	8	-0.8	16	-12	-12	13
65	CC(C)(C)C(=O)NC1(C(F)(F)F)NC(=O)N(c2ccc(F)cc2)C1=O (configuration not stated)	2	0.1&-0.3	3	-12	32&21	-1
66	COC1=C(Br)C(=O)c2nc(C)ccc2C1=O	?	-0.2	.	-9	0	-14
67	O=C(c1ccc(F)cc1)c1cnc(Nc2ccccc2)s1	-1	-0.1	1	-5	12	4
68	Cc1nnc(NC(=O)c2ccccc2NC(=O)c2ccccc2)s1	0	1.3	-3	9	37	.
69	CCC(=O)N1c2ccc(S(=O)(=O)N3CCN(c4ccccc4Cl)CC3)cc2CC1C (configuration not stated)	-6	2.2&2.4	-5	-8	35&14	.
70	Nc1c(C(=O)NC2CCCCC2)nsc1C(=O)OCC(=O)NC1CCCCC1	-1	1.0	-14	8	3	4
71	Cc1nnc(SCC(=O)NCCOc2ccc(Cl)cc2)n1-c1ccccc1	6	-0.7	?	-17	7	-2
72	COc1ccccc1CNC(=O)CN1C(=O)c2cccc(N)c2C1=O	4	2.5	2	-2	31	0
73	CCCC(=O)N1CCCC1(C)C(=O)Nc1cc(C)ccc1C (configuration not stated)	0	0.0	.	-10	-5	4
74	COCCCNC(=O)CS(=O)(=O)Cc1nc(-c2ccccc2C)oc1C	6	-0.1	?	-3	-6	6
75	CC(=O)C1=C(C)NC(SCC(N)=O)=C(C#N)C1c1ccco1 (configuration not stated)	2	0.5	26	-10	10	-29
76	COC(=O)CSc1nnc(-c2ccc(S(=O)(=O)NCc3cccs3)cc2)o1	2	-0.4	-10	-8	-3	11

# An excerpt from above in order of their number in CtBP-E1A inh, rising:
item	Compound	CtBP-E1A inh
75	CC(=O)C1=C(C)NC(SCC(N)=O)=C(C#N)C1c1ccco1 (configuration not stated)	-29
66	COC1=C(Br)C(=O)c2nc(C)ccc2C1=O	-14
72	COc1ccccc1CNC(=O)CN1C(=O)c2cccc(N)c2C1=O	0
54	CN1CCN(CCCNC(=O)Cn2nc(-c3ccccc3)ccc2=O)CC1	3
70	Nc1c(C(=O)NC2CCCCC2)nsc1C(=O)OCC(=O)NC1CCCCC1	4
